Sfp PPTase inh: inhibitors of Bacillus subtilis Sfp phosphopantetheinyl transferase; Q9F4F7; Biochemical Sfp PPTase activity, qHTS; Potency, µM, inactives show max response, negative = inhibition, most hits filed as inhibitors; hit rate 3.5% among 310,000; AID 1490; active = well fitted inhibition curve with a large enough effect; inconclusive = small, poorly fitted or top-dose-only effect, or another doubt; inactive = no such curve, though single readings can be large or run the other way;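 note: the enzyme is Sfp with the accession as filed and its product quenches rhodamine fluorescence; potency is the fitted concentration of half-maximal effect; 0% = enzyme reaction without inhibitor and -100% = no enzyme wells; top concentration of the series not given in the record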
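Compounds were incubated with enzyme (final 15 nM) for 15 min at room temperature before substrate addition started the reaction. Fluorescence at 525 nm excitation, 598 nm emission was recorded immediately and after 30 minutes.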
ClpP mod: qHTS Assay for Activators of ClpP; ATP-dependent Clp protease proteolytic subunit (Bacillus subtilis (strain 168)), P80244; purified B. subtilis ClpP, FRET peptide cleavage, 20 min; Potency, µM (series often up to 57.5 µM), for the others: top-dose activity change, negative = active; hit rate 1.9% among 340,000; active = well fitted falling curve with a large enough effect; inconclusive = small, poorly fitted or top-dose-only effect; inactive = no such curve, though single readings can be large or run the other way; note: potency is the fitted concentration of half-maximal effect; the source files actives as falling curves though it sought activators and does not explain the sign; nearly all actives have a fitted effect of over 65% in size; many hits overshoot -100%
Target sequence (P80244 whole entry, looked up): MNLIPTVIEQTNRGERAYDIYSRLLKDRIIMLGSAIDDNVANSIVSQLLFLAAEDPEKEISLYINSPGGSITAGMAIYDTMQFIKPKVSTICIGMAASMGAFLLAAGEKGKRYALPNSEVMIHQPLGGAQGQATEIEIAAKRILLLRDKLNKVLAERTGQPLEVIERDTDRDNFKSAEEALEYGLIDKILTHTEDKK
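Buffer: 100 mM Tris/HCl pH8, 100 mM KCl, 0.05% low protease BSA, 2.5% glycerol, 0.01% Tween-20. ClpP 10 microg/mL final; 20 min RT; delta FRET normalized to ADEP and DMSO controls.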
gsp agonist: gsp mutant agonism | hit rate 0.13% among 340,000 | Potency, µM (series often up to 76.9 µM), for the others: top-dose activation (cAMP increase), hits mostly activators | gsp mutant cells, cAMP HTRF, 30 min; control for the full effect not named in the record; active = well fitted activation curve with a large enough effect; inconclusive = small, poorly fitted or top-dose-only effect, or another doubt; inactive = no such curve, though single readings can be large or run the other way; cell line not stated here;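 note: phosphodiesterase inhibitor Ro 20-1724 added with compounds to block cAMP breakdown; potency is the fitted concentration of half-maximal effect; nearly all actives have a fitted effect of over 60% in size; about a fifth of the inactives were tested at one dose only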
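Cells stably selected in G418 were plated at 2000/well, grown 16-24 hr, then given compounds in DMSO with the PDE inhibitor […] (300 uM solution added) for 30 min at 37C; cAMP was read by HTRF.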
gsp antagonist: antagonists of gsp mutant (McCune-Albright syndrome). gsp-mutant cells, cAMP HTRF, 30 min; control for the full effect not named in the record. Potency, µM (top dose mostly 76.9 µM), for the others: at the top dose activity change, negative = inhibition, usual class: inhibitors. hit rate 0.4% among 340,000. AID 624288; active = falling curve of any shape with a large fitted effect; inconclusive = falling curve, mostly with a smaller effect; inactive = flat or rising curve; cell line not stated here;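 note: intracellular cAMP measured with PDE inhibitor Ro 20-1724 present during compound exposure; potency is the fitted concentration of half-maximal effect; % is set by controls: 0 for no effect and ±100 for the full control effect; nearly all actives have a fitted effect of over 65% in size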
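Cells, 2000/well, grown 16–24 h in DMEM 10% FBS with 0.5 mg/ml G418, then compounds plus […] (300 uM addition stock), 30 min at 37C. cAMP read by HTRF (cAMP-d2 and anti-cAMP antibody-K in lysis buffer) after 30 min RT.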
TRPV1 potentiator: human TRPV1 potentiation; AID 540277; TRPV1-expressing cells, Fluo-8 calcium influx, capsaicin EC20 potentiation; host cell line not named in the record; control for the full effect not named in the record; Q8NER1; potentiation, % at 8.33 µM; hit rate 0.02% among 320,000; active means potentiation above 80%; inconclusive means 30% to 80%; inactive means below 30%; note: 0% is about no effect
Target sequence (Q8NER1 whole entry, looked up): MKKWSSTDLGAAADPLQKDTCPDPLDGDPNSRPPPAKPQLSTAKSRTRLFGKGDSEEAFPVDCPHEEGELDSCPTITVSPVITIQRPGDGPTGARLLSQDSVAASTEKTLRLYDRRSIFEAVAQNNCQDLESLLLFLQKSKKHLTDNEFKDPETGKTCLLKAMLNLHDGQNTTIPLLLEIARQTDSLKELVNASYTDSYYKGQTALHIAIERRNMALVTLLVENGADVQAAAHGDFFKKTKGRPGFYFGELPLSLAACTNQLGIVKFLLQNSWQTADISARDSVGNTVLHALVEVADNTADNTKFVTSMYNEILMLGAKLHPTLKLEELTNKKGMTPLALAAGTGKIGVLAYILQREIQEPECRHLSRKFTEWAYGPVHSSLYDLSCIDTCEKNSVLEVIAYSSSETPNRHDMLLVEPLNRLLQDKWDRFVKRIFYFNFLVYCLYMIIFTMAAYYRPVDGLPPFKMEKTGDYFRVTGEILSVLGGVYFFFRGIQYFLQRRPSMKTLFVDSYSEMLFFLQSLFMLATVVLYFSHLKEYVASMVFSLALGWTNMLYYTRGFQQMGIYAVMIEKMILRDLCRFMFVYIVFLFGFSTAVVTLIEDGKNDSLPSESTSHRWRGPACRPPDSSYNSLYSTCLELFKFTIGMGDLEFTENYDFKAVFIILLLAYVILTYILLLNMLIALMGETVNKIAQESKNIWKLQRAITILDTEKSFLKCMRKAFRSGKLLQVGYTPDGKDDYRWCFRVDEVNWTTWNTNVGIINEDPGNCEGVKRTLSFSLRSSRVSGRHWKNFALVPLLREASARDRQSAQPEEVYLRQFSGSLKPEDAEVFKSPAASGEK
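Fluo-8 calcium influx in TRPV1-expressing cells, kinetic read (ex 480/em 520 nm). Compound added and read 3 min for agonist activity, followed by capsaicin at EC20 final and 2 min further read for enhancement.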
Menin-MLL FL inh: displaces fluorescein MLL peptide from human menin. FP activity change, % at 61.4 µM. 290,000 tested, under 10 active. Fluorescence polarization, fluorescein-MLL peptide displacement from menin; inconclusive = falling polarisation curve, or a change in total fluorescence; inactive = total fluorescence flat and polarisation flat or rising; no compound was filed as active; the % refers to the polarisation; negative = inhibition;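 note: % of control where 0% means no effect; inhibitors lower the polarisation; unlabelled MLL peptide was the positive control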
TRPML1 blocker: blocks the human TRPML1 channel. activity change, negative = inhibition, % (concentration not given with the values). Q9GZU1. AID 624415. hit rate 0.02% among 390,000. TRPML1-inducible cells, Ca2+ dye fluorescence, FDSS; hits give low values; inhibition of EC80 agonist-evoked calcium signal; in the data active means activity change below about -50%; inconclusive means about -30% to -50%; inactive means above about -30%;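 note: stimulus is agonist 54-4 at its EC80 concentration; % is set by controls: 0 for no effect and ±100 for the full control effect; compound concentration not given in the record; the text of the record puts the active cut at -80%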
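Tet-induced TRPML1-DL cells loaded with Ca8 no-wash calcium dye were read kinetically on FDSS. Compound addition was followed by EC80 agonist 54-4 (4 uM final); inhibition was read over 110 s.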
Numbers without * were called inactive; ? = inconclusive; / = no result given; & = joins results of further samples; [ ] = dose if it differs, or a comment.

SMILES	Sfp PPTase inh	ClpP mod	gsp agonist	gsp antagonist	TRPV1 potentiator	Menin-MLL FL inh	TRPML1 blocker
CC(C)Cn1c(N)c(C(=O)COC(=O)CN2C(=O)C3CC=CCC3C2=O)c(=O)n(C)c1=O (stereo not given)	0%	/	8%[15.4 µM]	/	0	1.5	19
COc1ccccc1N1CCN(C2CCCN(C(=O)CCc3ccccn3)C2)CC1 (stereo not given)	10%	-2.1%	-2%	18%	2	/	7
COc1ccc(CN2CCN(C(=O)C3CCC(CNS(=O)(=O)c4ccccc4)CC3)CC2)c(OC)c1OC (stereo not given)	-1%	/	-6%	-14%	-1	-1.5	8
COc1ccc(S(=O)(=O)NCC(=O)NC2CC2)cc1OC	7%	-4.1%	?	4%	4	/	13
CC(C)(CNc1ccc([N+](=O)[O-])cc1Cl)CNS(C)(=O)=O	-19%	0.6%	-46%[inhibitor]	-7%	-6	2.6	-14
CCCC(=O)N1CCN(c2nnc(-c3ccccc3)c3ccccc23)CC1	0%	-0.8%	-3%	-20%	-14	-2.1	-17
O=C(COc1ccc(Cl)cc1Cl)Nc1ccc(C(=O)Nc2ccccc2C(=O)O)cc1	2%	?	21%	?	12	-2.0	6
CC(=O)N1CCc2cc(Br)cc(S(=O)(=O)NCCCN3CCCC(C)C3)c21 (stereo not given)	13%	-0.9%	-37%[inhibitor]	2%	-13	-1.1	-5
CCCS(=O)(=O)n1nc(-c2ccc(C)cc2)cc1N	12%	-0.4%	21%	4%	5	0.9	-1
COc1ccc(Cc2nc(-c3cccnc3)no2)cc1OC	1%	0.8%	4%	-24%	-4	-2.3	-4
c1ccc(Cc2nn3c(-c4ccncc4)nnc3s2)cc1	?	-1.3%	20%	-2%	-4	1.6	-17
O=C(c1cccc(F)c1)N1CCN(c2ccc([N+](=O)[O-])c(N3CCOCC3)c2)CC1	12%	-1.6%	-25%	-4%	-13	3.0	12
CN(Cc1ccc2c(c1)OCO2)C(=O)c1cc(-c2ccccc2)c(N2CCOCC2)s1	/	?	?	-22%	-6	/	-12
COc1ccc(CN2CCCC(C(=O)N3CCCC3)C2)c(OC)c1 (stereo not given)	-19%	/	-3%	6%	1	-10	10
CC(C)Nc1nc(-c2ccccc2)nc(-n2ccnc2)n1	10%	2.5%	-67%[inhibitor]	-14%	-15	2.9	-13
Cc1ccccc1OCC(=O)NC1=NCCS1	15%	1.6%	12%	0%	8	2.2	-3
O=C(NC1=NCCS1)c1cccc(S(=O)(=O)N2CCc3ccccc32)c1	11%	/	-5%[15.4 µM]	/	-14	-0.4	0
COc1cccc(C2SCC(=O)N2c2ccc(Cl)cc2)c1OC (stereo not given)	-1%	16%	7%[15.4 µM]	-10%	11	4.0	-8
CC1CN(S(=O)(=O)c2cccc(C(=O)NCC3COc4ccccc4O3)c2)CC(C)O1 (stereo not given)	/	1.0%	9%	-18%	?	/	-7
CC[C@]12C(=O)N(C)C[C@H]([C@@H]3C(=O)N(C)C(=O)[C@@H]31)N2C(=O)c1ccc(Cl)c(Cl)c1	/	-1.7%	2%	-1%	/	/	32
O=C(c1ccc(S(=O)(=O)N2CCOCC2)cc1)N(Cc1ccco1)Cc1cccs1	4%	-3.3%	28%	-25%	-17	-0.6	-9
COc1ccc(CN2CC[C@H]3C=CC[C@@H](C(=O)NCCc4ccccc4)[C@H]3C2=O)cc1OC	/	-1.7%&3.3%	19%	-2%	/	/	1
O=C(Nc1nc2ccccc2[nH]1)c1ccc(Br)o1	16%	/	-2%[15.4 µM]	-14%	1	-0.4	5
CCN(CC)CCn1c2ccc(Cl)cc2c2nc(C)sc21	3%	1.3%	?	0%	-2	0.3	2
Cc1ccc(-n2nccc2-c2nn(-c3cccc(C(F)(F)F)c3)c(=O)n(C)c2=O)cc1	27%	/	?	?	-5	-3.3	-21
CC(C)Oc1ccc(S(=O)(=O)N(C(C)C)C(C)C)cn1	20%	-1.6%	-32%[inhibitor]	8%	1	4.2	-10
O=S(=O)(Cc1ccccc1)N1CCc2ccccc21	1%	/	/	/	-10	?	/
CN(C1CCCCC1)S(=O)(=O)c1ccc(S(=O)(=O)N2CCN(CCC#N)CC2)cc1	-23%	1.2%	-131%[inhibitor]	-2%	-2	4.5	-9
CCOc1ccc(Nc2nc(N)c([N+](=O)[O-])c(N3CCN(C)CC3)n2)cc1	12%	0.8%	?	-6%	1	-1.6	4
COc1ccc(CCN2C(=O)c3ccccc3NC2c2cc(Cl)c(O)c(OC)c2)cc1 (stereo not given)	-13%	/	16%	-13%	-3	-1.2	25
Cc1cc(C)n(-c2ccc([N+](=O)[O-])cc2-c2nn[nH]n2)n1	79µM*	/	-39%[inhibitor]	6%	-3	0.3	-1
CCCCOC(=O)N/N=C/C=C/c1ccccc1	1%	-0.6%	13%[15.4 µM]	-3%	9	2.1	-7
NS(=O)(=O)c1cccc(NC(=O)CSc2nnc(C3CC3)n2Cc2ccccc2)c1	7%	/	6%[15.4 µM]	-1%	24	4.6	-5
CCC(=O)OC1(C#CCOc2ccc(OC)cc2)CCN(C)CC1	18%	-0.1%	-4%	6%	-5	3.2	-16
CCOc1ccc(OCC(=O)Nc2ccc(S(N)(=O)=O)cc2)cc1	-4%	0.6%	28%	4%	-6	3.7	5
O=S(=O)(c1ccc(F)cc1)N1CCN(c2ccc(-c3ccccc3)nn2)CC1	12%	/	-2%[15.4 µM]	10%	0	3.9	2
Cc1ccc(S(=O)(=O)N(C)C)cc1NC(=S)N1CCCCC1CO (stereo not given)	4%	/	0%	2%	-7	0.5	3
Cc1nc(SCC(=O)N2CCNC2=O)c2ccccc2n1	/	/	?	14%	/	/	28
O=C(Nc1ccc(Cl)c(C(F)(F)F)c1)[C@@H]1CC=C[C@@H]2CCN(C3CCCCC3)C(=O)[C@@H]21	/	-0.4%&3.2%	/	0%	/	/	4
Cn1nc(C(=O)NCC2COc3ccccc3O2)c2ccccc2c1=O (stereo not given)	/	-0.3%	-10%	3%	5	/	4
CSC1=NCCN1S(=O)(=O)c1ccc(NC(C)=O)cc1	24%	1.3%	-44%[inhibitor]	6%	8	0.0	11
COc1ccc(CCNC(=S)NC2CCN(Cc3ccccc3)CC2)cc1	?	/	-1%	-4%	2	5.4	-7
Cc1ccc(NC(=O)CC(=O)NCCN2CCOCC2)cc1	8%	-0.5%	0%	4%	6	1.2	18
COc1ccc(N2CCN(C(=O)CN3CCN(C(c4ccccc4)c4ccccc4)CC3)CC2)cc1	4%	-1.4%	26%	-13%	0	1.4	-8
Cc1ccc([N+](=O)[O-])cc1S(=O)(=O)Nc1ccc(N2CCOCC2)cc1	14%	/	16%[15.4 µM]	-8%	-1	0.4	-2
CSCCC(NS(=O)(=O)c1ccc(Cl)cc1)C(=O)OCC(=O)c1c(C)[nH]c2ccccc12 (stereo not given)	29%	-2.5%	-29%	?	-15	/	-2
FC(F)(F)c1ccncc1-c1nnnn1-c1ccc(Cl)cc1	-4%	0.2%	6%[15.4 µM]	-4%	2	-1.8	5
Clc1ccc(/C=N/Nc2nc(Cl)nc3ccccc23)cc1	-8%	-16%	1%	-8%	-9	1.0	-6
Cc1ccc(S(=O)(=O)N2C[C@@H](C)[C@]3(C2)[C@H](O)[C@H](OC(=O)NCc2ccccc2)C[C@H]2C(=O)N(c4ccccc4)C(=O)[C@H]23)cc1	/	-0.1%	-2%	/	/	/	1
O=C(Cc1cccs1)N1CCN(c2ccc([N+](=O)[O-])cc2)CC1	17%	/	20%[15.4 µM]	/	-28	3.8	-9

(cont.)
SMILES	Sfp PPTase inh	ClpP mod	gsp agonist	gsp antagonist	TRPV1 potentiator	Menin-MLL FL inh	TRPML1 blocker
Cc1ccccc1-c1nsc(SCC(=O)c2ccc(Cl)cc2)n1	13%	-5.6%	-2%	-4%	5	11	10
O=C(NCCS(=O)(=O)N1CCN(c2ccccc2F)CC1)c1cccc(Br)c1	17%	1.8%	?	5%	-2	4.2	-13
Cc1cccc2[nH]c(CN(C)C(=O)C3CCC(=O)N(CCc4ccccc4)C3)nc12 (stereo not given)	1%	-1.8%	12%	2%	14	-0.1	-19
COCCNC(=O)CCn1nc(-c2ccc(Cl)cc2)ccc1=O	-7%	-12%	?	7%	-4	-0.1	8
O=[N+]([O-])c1cccc(S(=O)(=O)N2CN(c3ccc(Br)cc3)c3nc4ccccc4nc32)c1	/	-2.1%	-5%	5%	/	/	7
Cc1onc(-c2c(F)cccc2Cl)c1C(=O)Nc1sc2c(c1C(N)=O)CCC2	-7%	?	-25%	-9%	3	2.7	31
CCN(CC(=O)Nc1ccccc1C(F)(F)F)C(=O)c1ccc(=O)n(Cc2ccccc2)n1	4%	-0.3%	-48%[inhibitor]	-11%	-4	1.6	4
C=CCn1c(CNC(=O)c2cccs2)nnc1SCC(=O)Nc1ccc(C(=O)O)cc1	-12%	-1.7%	4%	5%	25	1.0	4
CCN1CCN(c2nc3ccccn3c(=O)c2C=O)CC1	13%	-6.6%	11%	7%	-1	-28	/
Cc1onc(-c2ccccc2)c1C(=O)N1CCOC12CCN(c1cccc(F)n1)CC2	3%	/	-15%	-18%	0	-2.8	14
CCn1cc(CCC(=O)NC(C)c2ccccc2)c2ccccc21 (stereo not given)	10%	-19%	-11%	-4%	1	2.6	-2
COc1cc(Cl)c(C)cc1NC(=O)CC1CCCC1	12%	/	15%[15.4 µM]	/	13	4.4	32
CCN(CC(=O)Nc1cccc(F)c1)Cc1nc2ccccc2c(=O)[nH]1	?	-1.5%	?	32µM*	5	-1.0	10
Cc1cc(C)cc(NC(=O)CSc2nc3ccccc3nc2N2CCCCC2)c1	7%	-20%	-5%	-9%	-12	12	-2
CC(=O)Nc1ccc(S(=O)(=O)N(C)CC(=O)OCC(=O)NNC(=O)c2ccccc2F)cc1	/	11µM*	-1%	13%	5	/	-4
Cc1cc(C)cc(C(=O)N[C@@H](C)C(=O)N2CCC3(CC2)NCCc2[nH]cnc23)c1	9%	-2.2%	-4%	9%	3	/	-11

Screening data deposited in PubChem by National Center for Advancing Translational Sciences (NCATS).

No enrichment for hits (roughly 4.9% active in at least one column).
